gsp agonist = activates gsp, the McCune-Albright syndrome mutation | actives 0.13% (n = 340,000) | gsp mutant cells, cAMP HTRF, 30 min; control for the full effect not named in the record | Potency, µM (top dose mostly 76.9 µM), without a hit: top-dose activation (cAMP increase), usual class: activators; active = well fitted activation curve with a large enough effect; inconclusive = small, poorly fitted or top-dose-only effect, or another doubt; inactive = no such curve, though single readings can be large or run the other way; cell line not stated here;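 note: phosphodiesterase inhibitor Ro 20-1724 added with compounds to block cAMP breakdown; potency is the fitted concentration of half-maximal effect; nearly all actives have a fitted effect of over 60% in size; about a fifth of the inactives were tested at one dose only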
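Cells stably selected in G418 were plated at 2000/well, grown 16-24 hr, then given compounds in DMSO with the PDE inhibitor […] (300 uM solution added) for 30 min at 37C; cAMP was read by HTRF.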
ClpP mod = qHTS Assay for Activators of ClpP; actives 1.9% (n = 340,000); Potency, µM (titrated, usually from 57.5 µM), for the others: at the highest dose activity change, negative = active; purified B. subtilis ClpP, FRET peptide cleavage, 20 min; ATP-dependent Clp protease proteolytic subunit (Bacillus subtilis (strain 168)), P80244; active = well fitted falling curve with a large enough effect; inconclusive = small, poorly fitted or top-dose-only effect; inactive = no such curve, though single readings can be large or run the other way; note: potency is the fitted concentration of half-maximal effect; the source files actives as falling curves though it sought activators and does not explain the sign; nearly all actives have a fitted effect of over 65% in size; many hits overshoot -100%
Target sequence (P80244 whole entry, looked up): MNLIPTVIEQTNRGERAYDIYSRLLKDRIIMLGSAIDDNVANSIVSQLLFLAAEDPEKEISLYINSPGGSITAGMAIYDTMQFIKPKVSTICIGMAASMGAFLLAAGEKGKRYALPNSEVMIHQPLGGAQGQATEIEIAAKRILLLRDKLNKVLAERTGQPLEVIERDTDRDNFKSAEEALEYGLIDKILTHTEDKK
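ClpP 10 microg/mL final, pH 8 Tris/KCl buffer with BSA, glycerol, Tween-20; compound pinned in; FRET-FV substrate; RT 20 min; Ex320/Em430; ΔFRET vs ADEP 5.8 microM, DMSO, no enzyme.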
Menin MLL FP FL = displaces fluorescein MLL peptide from human menin. FP activity change, % at 61.4 µM. Fluorescence polarization, fluorescein-MLL peptide displacement from menin. AID 1766. 290,000 tested, under 10 active; inconclusive = falling polarisation curve, or a change in total fluorescence; inactive = total fluorescence flat and polarisation flat or rising; no compound was filed as active; the % refers to the polarisation; negative = inhibition;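 note: % of control where 0% means no effect; inhibitors lower the polarisation; unlabelled MLL peptide was the positive control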
TRPML1 inh = blocks the human TRPML1 channel | Q9GZU1 | TRPML1-inducible cells, Ca2+ dye fluorescence, FDSS; stronger effect = lower value; inhibition of EC80 agonist-evoked calcium signal | activity change, negative = inhibition, % (concentration not given with the values) | actives 0.02% (n = 390,000); in the data active means activity change below about -50%; inconclusive means about -30% to -50%; inactive means above about -30%;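 note: stimulus is agonist 54-4 at its EC80 concentration; % is set by controls: 0 for no effect and ±100 for the full control effect; compound concentration not given in the record; the text of the record puts the active cut at -80%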
Target sequence (Q9GZU1 whole entry, looked up): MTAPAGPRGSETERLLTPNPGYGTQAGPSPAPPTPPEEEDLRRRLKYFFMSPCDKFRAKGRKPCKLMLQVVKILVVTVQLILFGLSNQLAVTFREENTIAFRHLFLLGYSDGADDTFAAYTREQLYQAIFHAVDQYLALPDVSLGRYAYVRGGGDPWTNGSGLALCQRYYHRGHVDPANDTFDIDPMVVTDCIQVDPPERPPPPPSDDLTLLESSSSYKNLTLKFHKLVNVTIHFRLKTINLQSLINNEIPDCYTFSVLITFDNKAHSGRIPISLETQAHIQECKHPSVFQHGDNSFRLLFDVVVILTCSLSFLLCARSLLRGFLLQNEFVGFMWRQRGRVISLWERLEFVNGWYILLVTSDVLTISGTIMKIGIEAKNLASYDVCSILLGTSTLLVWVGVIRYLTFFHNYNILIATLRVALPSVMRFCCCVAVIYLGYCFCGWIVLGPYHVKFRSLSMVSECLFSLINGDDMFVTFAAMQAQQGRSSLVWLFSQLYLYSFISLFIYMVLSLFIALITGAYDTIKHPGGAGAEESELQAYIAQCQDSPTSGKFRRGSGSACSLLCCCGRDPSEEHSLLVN
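TRPML1-DL cells, Tet-induced overnight (~16 h, 37 °C) at 1,500 cells/well, were loaded with Ca8 no-wash dye plus quencher for 45-90 min at room temperature. Compounds were pinned during FDSS kinetic reading; agonist 54-4 at EC80 (4 uM final) then added.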
gsp antag = antagonists of gsp mutant (McCune-Albright syndrome); gsp-mutant cells, cAMP HTRF, 30 min; control for the full effect not named in the record; actives 0.4% (n = 340,000); Potency, µM (doses to about 76.9 µM), for the others: at the highest dose activity change, negative = inhibition, usual class: inhibitors; active = falling curve of any shape with a large fitted effect; inconclusive = falling curve, mostly with a smaller effect; inactive = flat or rising curve; cell line not stated here;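 note: intracellular cAMP measured with PDE inhibitor Ro 20-1724 present during compound exposure; potency is the fitted concentration of half-maximal effect; % is set by controls: 0 for no effect and ±100 for the full control effect; nearly all actives have a fitted effect of over 65% in size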
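Cells, 2000/well, grown 16–24 h in DMEM 10% FBS with 0.5 mg/ml G418, then compounds plus […] (300 uM addition stock), 30 min at 37C. cAMP read by HTRF (cAMP-d2 and anti-cAMP antibody-K in lysis buffer) after 30 min RT.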
TRPML1 ag = activates the human TRPML1 channel; Q9GZU1; TRPML1-expressing cells, Ca2+ dye fluorescence, FDSS; host cell line not named in the record; reference of the full effect not given here; activation, % (no concentration beside the values); actives 0.12% (n = 410,000); AID 624414; in the data active = activation above about 50%; inconclusive = about 30% to 50%; inactive = below about 30%; note: 0% is about no effect; the text of the record puts the active cut at 80%
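Tetracycline-induced TRPML1-DL cells are seeded and incubated overnight before loading with a no-wash Ca2+ dye and quencher. Agonist activity is taken from the 110 s fluorescence read following compound pin-transfer on an FDSS, before EC80 54-4 challenge.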
* hit, by the source's call; u = inconclusive; x = no result given; & = joins results of further samples; [ ] = remark or other dose.

smiles	gsp antag	Menin MLL FP FL	ClpP mod	TRPML1 ag	TRPML1 inh	gsp agonist
CC1CCN(C(=O)c2[nH]cnc2C(=O)Nc2ccccc2)CC1	4%	x	-1.3%	1.4	-11	-7%
O=C1CN(S(=O)(=O)c2cccc(C(=O)O)c2)c2ccccc2N1	10%	-0.2	x	-0.1	-7	2%
Cc1ccc(-c2c[n+](Cc3cccc(Cl)c3)c3n2CCC3)cc1	-2%	-2.1	-0.9%	0.5	13	14%[15.4 µM]
CC1(C)c2ssc(=S)c2-c2ccccc2N1C(=O)CSC1=NCCS1	u	2.5	-0.6%	0.3	-1	2%
COc1cccc(-n2c(=O)c3c(C)c(C(=O)N(C)C)sc3n(Cc3ccc(F)cc3Cl)c2=O)c1	x	x	1.0%	1.0	-22	x
C[C@H]1C=CC(=O)O[C@H]1c1ccccc1	7%	3.6	-1.0%	0.2&0.4	36&-5	x
CC(Cc1ccco1)NC(=O)c1cccc(S(=O)(=O)N(C)C)c1 (stereo unspecified)	7%	2.0	x	-0.6	3	7%[15.4 µM]
c1ccc(Nc2ccccc2)cc1	8%	x	u	-0.3	-9	1%[15.4 µM]
O=C(CN(C(=O)CNS(=O)(=O)c1ccc(F)cc1)C1CCCC1)NCc1ccco1	-1%	x	x	-0.2	-1	16%[15.4 µM]
Cc1ccc(C(=O)OCC(=O)N2CCOCC2)cc1	2%	3.5	x	0.8	17	0%[15.4 µM]
Cc1ccc(OCC(=O)N(C)CC(=O)Nc2cccc(F)c2)cc1	12%	x	-0.9%	0.3	-5	-4%
COc1ccc(CCNC(=O)/C(=C/c2cccnc2)NC(=O)c2ccccc2)cc1	8%	1.7	x	0.8	-28	28%[15.4 µM]
CCn1cc(C(=O)OCC(=O)Nc2cc(S(=O)(=O)N(C)C)ccc2C)c(=O)c2ccc(C)nc21	3%	3.1	-0.5%	-0.1	25	6%
CCS(=O)(=O)N1CCc2cc(C(=O)N3CCN(c4ccc(OC)cc4)CC3)ccc21	x	x	-1.5%	0.2	18	x
CCOc1ccc(-c2cnc3n2CCC3)cc1	-15%	1.3	-17%	-1.1	6	1%
O=C(Nc1ccccc1)c1c2c(nc3ccccc13)CCCC2	2%	5.4	x	-1.1	17	-2%[15.4 µM]
CCCNC(=O)C1CCC(CNS(=O)(=O)c2ccc3c(c2)N(C(C)=O)CCO3)CC1 (stereo unspecified)	6%	-1.1	-0.6%	-0.8	-3	12%
Cc1ccc(NC(=O)COC(=O)/C=C/c2cccc(Cl)c2)cc1S(=O)(=O)N1CCOCC1	1%	4.9	-5.7%	-0.2	-5	26%
COC(=O)[C@]1(C)CCC[C@@]2(C)C3CC[C@@]4(C)C[C@]3(CCC21)CC(=O)N4C (stereo partly specified)	-5%	x	-3.9%	1.1	8	x
COc1ccc(C(C)(C)C)cc1NC(=O)CN1C(=O)C(=O)N(Cc2ccco2)C1=O	-7%	x	0.2%	0.1	15	-26%
O=C(c1cnn2c1NC(c1ccco1)CC2C(F)(F)F)N1CCN(c2cccc(Cl)c2)CC1 (stereo unspecified)	-2%[15.4 µM]	16	1.4%	2.1	18	-3%
Nc1ncncc1-c1ccc(Cl)cc1	8%	1.5	x	0.7	25	-21%
COCCNC(=S)N(CCc1c(C)[nH]c2ccc(F)cc12)Cc1ccc(C)cc1	u	6.4	x	1.0	55	-5%
Cc1cccc(C(c2sc3nc(-c4ccco4)nn3c2O)N2CCN(c3ccccc3F)CC2)c1 (stereo unspecified)	x	x	-1.3%	4.9	17	x
N/C(Cn1cncn1)=N\NC(=O)C(=O)Nc1cccc(C(F)(F)F)c1	3%	-2.7	x	-0.3	-2	-26%
Cc1cc(NC(=O)c2cc(-c3cccc(Cl)c3)on2)nn1Cc1ccc(Cl)cc1	x	x	-23%	-0.4	-2	x
CC1(C)CC(NC(=O)c2ccc(Cl)cc2)CC(C)(C)N1	7%	2.9	-1.4%	-0.8	1	15%[15.4 µM]
COc1ccc(CC(NC(C)=O)C(=O)NC2CCN(C(=O)c3cnccn3)CC2)cc1 (stereo unspecified)	3%	6.7	-3.1%	-0.2	3	4%
Cc1ccc(S(=O)(=O)N(C)Cc2ccc(-c3nnco3)cc2)cc1	-3%	-0.6	1.4%	1.0	-6	-1%
COc1ccccc1C(=O)N1CC(=O)Nc2ccc(F)cc2C1c1ccccc1 (stereo unspecified)	2%	-9.1	-3.2%	7.1	9	-9%[15.4 µM]
O=C(CCNC(=O)c1ccc([N+](=O)[O-])cc1)NCCC1=CCCCC1	-8%	x	x	0.1	5	24%[15.4 µM]
Cc1ccc2nc(-c3ccccc3Cl)cc(C(=O)Nc3cc(C)on3)c2c1	-3%	2.2	u	0.6	7	11%
COc1ccccc1Nc1nnc(C)c(=O)[nH]1	-6%	0.7	-0.8%	0.0	-16	14%
COc1ccc(CNCc2c(C(=O)O)c(C)n(Cc3ccccc3C)c2C)cc1OC	x	x	-1.3%	-0.8	-2	x
Cc1ccc(SCC(=O)OCC(=O)NCC2CCCCC2)cc1C	2%	x	-1.2%	0.6	-21	-16%
COc1ccc([N+](=O)[O-])cc1NC(=O)COC(=O)c1ccccc1O	-6%	2.9	x	1.2	-8	12%[15.4 µM]
O=C(NCCCN1CCCC1=O)c1cc2nc(-c3ccco3)cc(C(F)(F)F)n2n1	-2%	-1.3	x	-0.3	17	5%[15.4 µM]
CN(C)CCNC(=S)Nc1ccc(Cl)cc1	6%	-1.8	-1.1%	-0.2	4	-47%[inhibitor]
C=CCOc1ccc(C(=O)n2cc(C(=O)OC)c3ccccc32)cc1	-15%	-1.0	-1.0%	0.4	-6	1%[15.4 µM]
O=C(O)CN(c1ccc2c(c1)OCCO2)S(=O)(=O)c1ccccc1	3%	-0.9	-2.1%	-0.8	-16	9%
COc1ccc(C(=O)NC(=S)NC(C)C)cc1Br	-4%	0.9	-0.7%	1.6	27	2%
CC1=N/C(=C\c2ccc(OC(C)C)cc2)C(=O)N1c1ccc(C(=O)O)cc1	4%	x	-1.6%	4.4	8	0%
CCc1nn(-c2cc(Cl)ccc2OC)c2c1C(=O)CCC2	-14%	3.7	2.9%	4.9	9	-3%
CC/C(C)=N\N=C\c1c(O)n(CC)c2cc(C3=NNC(=O)CC3)ccc12	-3%	12	-7.2%	-0.6	3	-4%
CC(CN1CCCCC1)OC(=O)c1ccc2c(c1)OCCO2 (stereo unspecified)	8%	x	x	-0.6	-4	0%[15.4 µM]
Cc1ccc(NC(=O)c2cc(=O)[nH]c3ccccc23)cc1	4%	-3.3	-3.6%	1.9	-15	u
O=C(Cn1cc(C(=O)C2CC2)c2ccccc21)NCc1ccccc1	-20%	-3.7	-0.9%	0.1	-4	-54%
Cn1cnnc1SC(C(=O)Nc1cc(Cl)cc(Cl)c1)c1ccccc1 (stereo unspecified)	1%	-2.6	-0.3%	-0.6	16	-20%
COc1ccc2c(CC(=O)N3CCc4cc(OC)c(OC)cc4C3)coc2c1	-16%	1.4	x	0.6	13	8%[15.4 µM]
COc1ccc(C(=O)C(C)OC(=O)c2cccc(S(=O)(=O)Nc3cc(Cl)c(OC)cc3OC)c2)cc1 (stereo unspecified)	u	2.3	-1.7%	1.1	13	-38%
O=C(COC(=O)CSc1ccc2ccccc2c1)NCc1ccc2c(c1)OCO2	6%	3.3	-7.3%	2.1	53	0%
COc1ccc(C(=O)NC(CC(C)C)C(=O)O)cc1OC (stereo unspecified)	4%	-1.7	-0.4%	-0.3	1	u
CCOc1ccc(Nc2c3ccccc3nc3ccccc23)cc1	6%	-3.3	3.7%	x	x	18%
COc1ccc(S(=O)(=O)N2CCC(C(=O)N[C@@H](C)C(=O)NC3CC3)CC2)cc1	21%	2.3	-2.2%	-0.7	18	u
CC1CN(C(=O)CSc2nnc3c(Cl)cc(Cl)cn23)CC(C)O1 (stereo unspecified)	1%	2.7	-5.6%	-0.5	-5	u
CCn1nc(C)c2c(-c3ccccc3)cc(=O)n(C(C)C(=O)Nc3cccc(F)c3)c21 (stereo unspecified)	x	x	4.3%	1.4	6	x
Cc1ccc(SCC(=O)N=C2NC(=O)CS2)cc1	-12%	u	1.9%	2.5	26	0%
Cc1[nH]c(=O)c(C#N)c(C)c1CCC(=O)N(C)CC(=O)Nc1ccc(Cl)c(Cl)c1	7%	0.1	x	0.5	-17	19%
C/C(=N/Nc1ccc(C(=O)c2c(C)cc3ccccn23)cc1[N+](=O)[O-])c1ccc(O)cc1	2%	x	x	-0.2	-4	-6%
COCCOC(=O)c1c(C)oc2ccc(OC(=O)c3c(OC)cccc3OC)cc12	-31%	3.0	0.6%	0.7	0	-22%

(more compounds)
smiles	gsp antag	Menin MLL FP FL	ClpP mod	TRPML1 ag	TRPML1 inh	gsp agonist
CNc1nc(Nc2ccc(C(C)=O)cc2)nc(OC(C(F)(F)F)C(F)(F)F)n1	-2%	0.0	-5.5%	2.5	36	2%
CCOC(=O)N1CCN(S(=O)(=O)c2ccc(C)c(C)c2)CC1	8%	-6.3	-4.4%	0.2	18	4%
CC12CCC(C(=O)N3CCCCC3)([C@H](Br)C1=O)C2(C)C (stereo partly specified)	7%	-0.8	x	1.6	-2	-11%[15.4 µM]
CCOc1ccc(NC(=O)c2c(NC(=O)c3cccc(C)c3)sc3c2CCC3)cc1	x	x	-5.7%	-0.2	-13	x
O=C(CCSCCc1ccccn1)Nc1cc(F)ccc1F	-6%	4.2	0.4%&-1.4%	-0.2&3.3	4&39	10%
O=C(NCc1ccco1)C1CC2CCC1C2 (stereo unspecified)	5%	3.5	0.1%	0.0	83	-47%[inhibitor]
c1cc(-c2noc(CCC3CCCC3)n2)ccn1	1%	-0.9	-0.2%	1.0	2	-8%
CCC(CC)C(=O)NCCc1ccc(OC)cc1	-2%	3.8	-9.2%	-0.2	-16	-7%
Cc1ccc(S(=O)(=O)NC2CCCCC2)cc1	7%	x	-0.3%	-0.4	7	x
CCc1cccc(NC(=S)Nc2cccc3ccccc23)c1	6%	4.2	4.2%	-0.8	6	2%
O=C(NC(CO)Cc1ccc([N+](=O)[O-])cc1)C(Cl)Cl (stereo unspecified)	7%	-0.6	x	0.6	-1	-11%[15.4 µM]
COCCCn1c(=O)/c(=C/c2ccccc2OC(C)C)s/c1=C(\C#N)C(=O)Nc1ccc(C(=O)O)cc1	x	x	-3.2%	0.3	-7	-51%[inhibitor]

Compound activity as filed in PubChem BioAssay.
